Source: PubChem
CSC inhib: cancer stem cell viability inhibitors, primary screen, luminescence | 300,000 compounds, 1.1% hits | inhibition, % at 7.5 µM | AID 2717, 2010 | cancer stem cell-like cells viability;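 active = mean at 75% or more and at least half the replicates too; inconclusive = mean and replicates disagree; tested in HMLE shEcad cells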;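 note: 0% = median of negative and 100% = median of positive control wells; the first replicate is given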
MT1-MMP act inh: blockers of MT1-MMP proenzyme processing, primary screen, HT1080 RFP-PRO-GFP cells, GFP/RFP fluorescence | GFP/RFP ratio fluorescence, overnight; percent of plate control window, DMSO zero | GFP/RFP ratio change, % at 20 µM | 360,000 compounds, 0.061% hits | AID 651647, 2012;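 active = GFP/RFP ratio change of at least 30% with cell ATP level not reduced by more than half and red fluorescence within 50% of control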; note: strong numbers were not always called active
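Assay system: HT1080 cells carrying an RFP-PRO-GFP reporter | Dosing: Single dose of 20 µM compound, 1% DMSO final | Incubation: Cells overnight before dosing, compound overnight, 37 °C, 5% CO2 | Evaluation: GFP/RFP fluorescence ratio | Control set: DMSO and RFP-L50D-GFP cell wells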
PABP polyA inh: PABP poly(A) RNA binding inhibitors, primary screen, biochemical, fluorescence polarization, uHTS | Polyadenylate-binding protein 1 (Homo sapiens), P11940 | inhibition, % at 35 µM | 290,000 compounds, 1% hits;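 active = 50% or more with normal probe brightness, or confirmed in later tests; inconclusive = above 50% with abnormal brightness, or retests that disagree; inactive = below 50% or failed in later tests; about a fifth of its hits are not listed in these tables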;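 note: calls also rest on retests at 20 µM and on dose response follow-up; controls were probe without protein and protein plus probe with vehicle; some compounds called inactive have numbers as strong as hits; many hits fall short of the cut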
eIF4H FP inh: human eIF4H binding inhibitors, primary screen, translation initiation inhibitor project, biochemical, uHTS, fluorescence polarization; Eukaryotic translation initiation factor 4H (Homo sapiens), Q15056; eIF4H fluorescence polarization binding assay; inhibition, % at 35 µM; 290,000 compounds, 0.94% hits; AID 2012, 2009;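 active = 50% or more with normal probe brightness, or confirmed in later tests; inconclusive = above 50% with abnormal brightness, or retests that disagree; inactive = below 50% or failed in later tests; about a fifth of its hits are not listed in these tables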;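 note: calls also rest on retests at 20 µM and on dose response follow-up; 0% = protein and probe with vehicle and 100% = probe without protein; strong numbers were not always called active; many hits fall short of the cut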
Rce1 inh: yeast Rce1p protease inhibitors, primary screen, biochemical, fluorescence, cell-free homogeneous; calls only; 290,000 compounds, 0.27% hits; CAAX prenyl protease 2 (Saccharomyces cerevisiae (strain ATCC 204508 / S288c)), Q03530; yeast membranes, quenched prenylated peptide cleavage fluorescence;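 active = fall in fluorescence gain of 50% or more versus controls, with final raw signal at or below 3038400; inconclusive = same 50% fall but final raw signal above 3038400; inactive = fall in fluorescence gain under 50%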;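 note: plate controls were neutral control wells for no effect and wells lacking membranes for full effect; tested at 10 µM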
Target sequence (Q03530 whole entry, looked up): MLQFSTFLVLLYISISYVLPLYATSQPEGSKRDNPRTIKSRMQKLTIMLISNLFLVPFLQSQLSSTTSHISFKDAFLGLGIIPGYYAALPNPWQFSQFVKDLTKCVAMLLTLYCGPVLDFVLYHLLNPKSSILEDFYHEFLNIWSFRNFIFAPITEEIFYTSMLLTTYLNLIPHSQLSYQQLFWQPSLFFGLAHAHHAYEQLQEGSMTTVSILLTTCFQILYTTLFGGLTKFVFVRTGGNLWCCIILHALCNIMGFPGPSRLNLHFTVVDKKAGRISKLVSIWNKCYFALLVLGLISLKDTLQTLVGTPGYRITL
Yeast UUG start: modulators of yeast start codon fidelity, primary screen, whole organism, S. cerevisiae, single point, plate reader | S. cerevisiae UUG-firefly luciferase reporter, luminescence/redox ratio | AID 602363, 2012 | activity score, % at 18.7 µM | 350,000 compounds, 0.13% hits;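 active = replicate mean at a twofold rise or more, about +100% in these data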;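 note: firefly luciferase made from a UUG start codon reports start codon fidelity; reporter light over untreated wells divided by growth signal over untreated wells; some hits fall short of that in this replicate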
Env fusion inh: inhibitors of HIV-1 Env-driven cell-cell fusion, primary screen, HeLa-JRFL effector, CEM21 target cells, luciferase. inhibition, % at 12.3 µM. 360,000 compounds, 1.1% hits;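 active = mean replicate inhibition score of at least 50 and every replicate individually at or above 50; inconclusive = only one of the two criteria met; inactive = mean below 50 and not all replicates reaching 50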;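 note: 0% = plate neutral controls and 100% = maraviroc near 300 nM; one replicate is shown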
MT1-MMP act inh RFP: second read-out of MT1-MMP act inh, no call of its own (marks repeat the call); RFP signal change, %; measured here: RFP expression control read;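 0 = vehicle wells; hits needed this value within 50% of zero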
Active calls of the source: *; i = inactive; ? = inconclusive; . = not tested or not shown; + = active, no number; & = joins results of further samples; [ ] = another dose, or the depositor's remark. An unsorted share of the library. Share with any hit: about 2.9%.

SMILES	CSC inhib	MT1-MMP act inh	MT1-MMP act inh RFP	PABP polyA inh	eIF4H FP inh	Rce1 inh	Yeast UUG start	Env fusion inh
O=C(Nc1ccc(N2CCCC2)cc1)c1ccc([N+](=O)[O-])cc1Cl	0	0	2	9	-3	i	.	22
COc1ccc(OC)c(NC(=O)C2CC(=O)N(CCc3ccccc3)C2)c1 (centres undefined)	2	4	1	0	0	i	5	19
COc1ccc(N2CCN(CCNC(=O)Nc3ccc(C)c(Cl)c3)CC2)cc1	6	3	-7	4	-9	i	-9	10
C#CCN1C=CC(=O)[C@@H](OC(=O)Nc2ccc(C)cc2)[C@H]1c1ccccc1Br	.	5	1	.	.	.	6	-24
N#CCCSCc1ccc2oc(C(=O)O)cc2c1	-15	-2	0	9	-3	i	-13	.
Cc1ccc(CNC(C)(C)CO)cc1	-2	4	6	-5	-1	i	.	11
Cc1ccc(NC(=O)CCCc2nc3ccccc3s2)c(O)c1	-2	8	5	16	-14	i	-3	-3
COc1cccc(NCc2cc(=O)oc3cc(C)c(O)cc23)c1	-10	4	-5	-8	5	i	1	-20
O=C1CC(c2ccco2)CC(O)=C1C=Nc1ccccc1-c1ccccc1 (centres undefined)	9	-1	0	-13	-14	i	-3	20
C/C(=C\[C@@H](NP(=O)(c1ccccc1)c1ccccc1)c1ccccc1)CO[Si](c1ccccc1)(c1ccccc1)C(C)(C)C	41	-40	-32	.	.	i	-18	-35
Cc1ccc(C(=O)NCCCNC(=O)COc2ccc(C)c(C)c2)cn1	-2	3	1	2	8	i	-10	7
COC(C/C=C\[C@H](O)[C@@H](C)OCc1ccccc1)OC	-6	-1	0	.	.	i	-10	-9
S=c1[nH]nc(C(c2ccccc2)C2CCCCC2)o1 (centres undefined)	-5	-1	-2	-5	-3	i	.	-26
CS(=O)(=O)c1ccc(C(=O)OCC(=O)NC2CCS(=O)(=O)C2)cc1[N+](=O)[O-] (centres undefined)	-3	1	3	-3	1	i	18	-6
CCOC(=O)C(C)Oc1c(C(=O)OC)sc2ncccc12 (centres undefined)	-3	0	3	10	15	i	.	11
COCCn1c(SCc2nnc(-c3ccccc3)o2)nc2sc3c(c2c1=O)CCC3	.	-2	-1	1	-4	i	-15	-15
CCC(=O)c1ccc(N2CCN(C(=O)c3cc([N+](=O)[O-])ccc3F)CC2)c(F)c1	0	.	.	-10	-5	i	-2	11
CC(C)C(=O)c1c(C(C)C)nn2ccccc12	-4	0	3	.	.	i	-14	25
O=C(NCc1ccc(C(F)(F)F)cc1)C1CC(c2ccccc2C(F)(F)F)=NO1 (centres undefined)	10	3	0	2	0	i	-9	-1
COc1cccc(-c2nc(CS(=O)(=O)CC(=O)N3CCN(C)CC3)c(C)o2)c1	1	4	1	-11	4	i	-19	-1
O=C(NC1CCCCC1)C1CCC(CNS(=O)(=O)c2ccccc2)CC1 (centres undefined)	-7	-3	-1	-11	-8	i	-1	15
CC(=O)Nc1ccc(N(C(=O)CNC(=O)c2ccco2)C(C(=O)NCC2CCCO2)c2ccccc2)cc1 (centres undefined)	-6	1	7	-2	-4	i	.	-1
Cc1csc(NC(=O)CSc2nnc(NC(=O)NC(C)(C)C)s2)n1	0	-2	-3	.	.	i	97	.
O=C(Nc1ccc(NS(=O)(=O)c2ccccc2)cc1)c1cccnc1	3	0	-2	0	-6	i	-11	-6
O=c1cc(CSc2nnc(Nc3ccccc3F)s2)nc2sccn12	-8	-23	-14	7	-7	i	.	-13
O=[N+]([O-])c1ccc(N2CCCCC2)s1	-6	32*	2.1*	5	37	.	25	-79
COc1ccc(C(=O)NC2CCCCC2)cc1S(=O)(=O)N1CCOCC1	-16	1	2	18	-11	i	-14	-3
O=C(NCCc1cccc(F)c1)C1CCN(S(=O)(=O)c2ccc(F)cc2)CC1	7	0	-1	8	-6	i	-11	7
COc1ccc(CC(=O)Nc2nnc(SCC(=O)NCc3ccco3)s2)cc1OC	2	1	0	-7	15	i	.	6
Cc1cc(C)cc(C(=O)NCC(=O)OCc2nc(N)nc(Nc3ccccc3C)n2)c1	-2	5	2	.	.	.	-8	-13
CN(n1cnc2ccccc2c1=O)S(C)(=O)=O	-9	1	6	4	-2	i	-10	7
CCCc1nnc(NC(=O)Nc2ccccc2OC)s1	-11	14	3	-3	-1	i	-18	-64
COc1ccccc1CC(=O)N1CCN(c2ccc([N+](=O)[O-])cc2)CC1	-4	-2	-20	-2	-14	i	.	18
CCc1c(O)nc(SCC(=O)N2CCCCC2)n(-c2ccccc2C)c1=O	-2	-1	-1	-8	-12	i	.	.
O=C(CSCC(=O)N1CCCCC1)OCC(=O)c1c[nH]c2ccccc12	3	-9	-6	4	-8	i	2	-91
CC(C)Cc1c(O)nc(SCC(=O)Nc2ccc3c(c2)CCC3)[nH]c1=O	-13	0	-1	2	-1	i	.	.
O=C(C1CCN(Cc2cccs2)CC1)N1CCN(Cc2ccc3c(c2)OCO3)CC1	12	2	2	1	4	i	.	-7
COc1ccccc1NC(=S)N(CCCN1CCOCC1)Cc1cn(C)c2ccccc12	-6	7	11	-6	0	i	.	.
Cc1ccc(OCCOCCOc2ccc(Br)cc2/C=N\NC(=O)c2ccncc2)cc1	46	-2	-2	3	-2	i	-9	27
Cc1ccc(NC(=O)C(=O)NCCOc2ccccc2Cl)cc1	0	-5	1	-2	-3	i	-12	13
CS(=O)(=O)N1CCC(C(=O)Nc2ccc3c(c2)OCCO3)CC1	-17	5	1	6	3	i	.	.
Cc1ccc(N=C2S/C(=C/c3cccc(OCC(=O)O)c3)C(=O)N2C)cc1C	7	-1	1	2	-4	i	-10	-18
O=c1cc(N2CCCCC2)[nH]c(=O)n1C1CCCCC1	-2	-6	0	18	-9	i	-9	8
Cn1c(=O)[nH]c2cc(Cl)cnc21	.	-6	4	?	?	i	-10	.
COc1ccc2c(c1)c(C(=O)N/N=C/c1ccc(O)c(O)c1)c(C)n2C	19	-2	-12	6	-9	i	.	-51

Ordered by value in MT1-MMP act inh (high to low): 3 of the compounds above
smiles | MT1-MMP act inh | MT1-MMP act inh RFP | Rce1 inh | Yeast UUG start | Env fusion inh
COc1cccc(NCc2cc(=O)oc3cc(C)c(O)cc23)c1 | 4 | -5 | i | 1 | -20
O=C(C1CCN(Cc2cccs2)CC1)N1CCN(Cc2ccc3c(c2)OCO3)CC1 | 2 | 2 | i | . | -7
C/C(=C\[C@@H](NP(=O)(c1ccccc1)c1ccccc1)c1ccccc1)CO[Si](c1ccccc1)(c1ccccc1)C(C)(C)C | -40 | -32 | i | -18 | -35

More entries:
SMILES	CSC inhib	MT1-MMP act inh	MT1-MMP act inh RFP	PABP polyA inh	eIF4H FP inh	Rce1 inh	Yeast UUG start	Env fusion inh
CC1C(=O)N2CCCc3cc(S(=O)(=O)N4CCN(c5ccccc5F)CC4)cc1c32 (centres undefined)	-1	1	-4	.	.	i	-2	1
COc1ccc(OC)c(Nc2nc(-c3c(C)nc4ncccn34)cs2)c1	-2	13	-6	20	-2	i	-18	35
Cc1ccccc1CCN(CC(=O)NCc1ccc(F)cc1)C(=O)c1csnn1	-7	2	3	6	0	i	-17	15
O=C1N=C(N2CCOCC2)S/C1=C\c1ccccc1OS(=O)(=O)c1ccccc1	-16	-3	-6	0	0	i	-17	-3
C[C@H](CO)N1C[C@H](C)[C@@H](CN(C)S(=O)(=O)c2cn(C)cn2)Oc2cc(Br)ccc2S1(=O)=O	.	-1	3	.	.	.	-19&2	-11[16.7 µM]
C=C(C)c1cccc(C(C)(C)NC(=O)NCc2ccc(OC)cc2)c1	-15	3	-1	3	6	i	-9	.
Cc1ccc(Nc2c([N+](=O)[O-])ccc3c2=NC2(CCCCC2)N=3)cc1	4	16	0	-13	-4	i	-22	-28
COc1cccc(OCc2cc(C(=O)NC3CCOCC3)no2)c1	-4	1	-2	2	2	i	-7	-24
COc1ccc2oc(C(=O)OC(C)C(=O)N3CCC(C)CC3)c(C)c2c1 (centres undefined)	-10	2	-1	.	.	.	-11	10
O=C(C1CC1)N1CCN=C1SCc1cccc(F)c1	6	2	6	4	-15	.	-13	-7
O=C(NNC(=S)NC(=O)c1cccc([N+](=O)[O-])c1)c1ccc(O)cc1	4	6	3	2	12	i	.	1
COc1cc(/C=C(\C#N)c2nc3ccccc3s2)ccc1OCC(=O)Nc1ccccc1	?	-76	-1	-7	?	.	.	.
CCOc1cc(C(=O)Nc2ncn[nH]2)cc(OCC)c1OCC	-7	1	4	-17	-5	i	.	-7
CC1CCN(C(=O)C(=O)Nc2sc3c(c2C(=O)O)CC(C)(C)OC3)CC1	-18	-1	1	-9	-1	i	.	-5
CCOc1ccccc1NC(=O)CN(c1ccc(OC)cc1)S(=O)(=O)c1c(C)[nH]c(=O)[nH]c1=O	-20	-3	-1	.	.	i	-7	1
COc1ccc(-c2c(=O)n(OCc3ccccc3[N+](=O)[O-])c3ccccc3[n+]2[O-])c(OC)c1	-3	0	-2	-14	-1	i	.	1
Cc1ccc2nc(/C(C#N)=N/O)[nH]c2c1	-8	2	7	2	-2	i	-24	.
CN=C(NC#N)SCC(=O)c1ccc(Cl)cc1Cl	-15	-6	-2	10	-9	i	-10	-242
Oc1c(C(c2ccccc2)N2CCN(Cc3ccccc3)CC2)sc2ncnn12 (centres undefined)	-9	0	-2	2	-7	i	-16	8
C#CCNC(=O)C1=C[C@@H](c2ccc(Br)cc2)C[C@@H](OCc2ccc(CO)cc2)O1	-8	-1	-2	3	-4	i	-1&-8	-4[16.7 µM]
CN1OC[C@@H]2CN(Cc3ccccc3)[C@H](c3cccc(-c4ccc(C#N)cc4)c3)C[C@@H]21	.	-1	-7	.	.	.	9	0
CCOc1ccc(C(=O)Nc2nnc(S(=O)(=O)Nc3ccccc3C)s2)cc1	0	3	1	13	3	i	-11	-1
COCCn1c(SCC(=O)N2CCc3ccccc3C2)nc2cc(Cl)ccc2c1=O	-8	-9	-16	-9	-3	i	.	.
CC(C)(C)OC(=O)N1CCC(c2cc(=O)n3[nH]c(-c4ccc(Cl)cc4)cc3n2)CC1	24	-8	-12	6	5	i	-18	11
Cc1cc(C)cc(-n2c(C)cc(C(=O)CSc3nnnn3C)c2C)c1	-13	-1	-3	-15	-1	i	15	.
Cc1ccc(C)c(NC(=O)CN(C)C(=O)c2sccc2C)c1	-9	3	3	.	.	i	-2	-28
Cc1cc(C)cc(NC(=O)C(=O)NCCc2c[nH]c3ccccc23)c1	68	3	0	-3	2	i	-21	-10
CC1(C)CC2(CC(c3ccccc3)c3ccc(O)cc3O2)NC(=S)N1 (centres undefined)	0	-7	-6	0	-2	i	.	-27
O=C(O)CCCN1C(=O)/C(=C\c2ccco2)SC1=S	.	9	12	96*	100*	i	.	-6
Cc1ccc(C(=O)c2ccc(CC(=O)O)n2C)cc1	10	2	1	.	.	.	-2	-23
COc1cccc2c(=O)c(C(=O)O)c[nH]c12	-1	8	3	2	0	+	-13	.
O=C(Cn1c2ccccc2c(=O)c2ccccc21)N/N=C/c1ccc(N2CCCC2)c([N+](=O)[O-])c1	113*	-14	-3	-16	35	i	-12	-189
Cc1ccc(/C=N/Nc2ccc(Cl)nn2)cc1	.	1	-3	0	3	i	.	-37
